GIRK2 act: activators of human GIRK2 potassium channels | P48051 | HEK293-GIRK2 thallium flux, Thallos fluorescence | calls only for hits at 25 µM | 63,000 compounds, 0.05% hits;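 active = among the strongest 0.2% of first-round signals and kept after retests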;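 note: first round at about 10 µM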
Target sequence (P48051 whole entry, looked up): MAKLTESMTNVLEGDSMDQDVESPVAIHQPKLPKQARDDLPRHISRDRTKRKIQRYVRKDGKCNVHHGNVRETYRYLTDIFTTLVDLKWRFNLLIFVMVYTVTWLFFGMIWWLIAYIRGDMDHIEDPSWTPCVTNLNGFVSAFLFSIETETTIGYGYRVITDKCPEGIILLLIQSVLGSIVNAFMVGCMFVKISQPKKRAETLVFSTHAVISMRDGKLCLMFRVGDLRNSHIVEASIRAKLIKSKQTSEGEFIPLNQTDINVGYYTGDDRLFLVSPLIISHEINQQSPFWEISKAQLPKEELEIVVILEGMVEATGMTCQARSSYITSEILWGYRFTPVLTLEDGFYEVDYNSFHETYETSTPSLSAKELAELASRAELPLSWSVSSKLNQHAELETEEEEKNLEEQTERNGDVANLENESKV
Calls only; i = inactive. A portion of the library (hit frequency here may not be typical).

SMILES | GIRK2 act
CCCn1c(=O)c2c(nc3n2CCCN3c2ccc(OC)cc2)n(C)c1=O | i
Cc1cnc(-n2nnc(C(=O)N3CCN(c4ncccn4)CC3)c2C)s1 | i
O=C(CCn1c(=O)[nH]c2ccsc2c1=O)NCc1ccc(Br)cc1 | i
CCCC(=O)N1CCCC(c2nnc(-c3ccc4c(c3)OCO4)o2)C1 (stereo not given) | i
COc1ccc(S(=O)(=O)NCCC(=O)N2CCOCC2)cc1N(C)S(=O)(=O)c1ccccc1 | i
O=C(c1ccc(Nc2nn3c(=O)c4ccccc4nc3s2)cc1)N1CCc2ccccc2C1 | i
NC(=O)C1(N2CCCCC2)CCN(S(=O)(=O)c2[nH]ncc2C(=O)O)CC1 | i
O=C(NCCc1ccccc1)c1ccc(CNS(=O)(=O)c2cccc(Cl)c2)cc1 | i
CN(CC(=O)NCc1ccc(S(N)(=O)=O)cc1)c1nc2ccccc2s1 | i
COC(=O)c1sccc1S(=O)(=O)N1CCC(Oc2nc3ccccc3s2)CC1 | i
Cc1ccc(-n2c(C)nc3ccc(NC(=O)c4ccccc4[N+](=O)[O-])cc3c2=O)cc1 | i
O=c1c2cnn(CCO)c2ncn1Cc1ccc(Cl)c(Cl)c1 | i
COC(=O)c1cccc(C(=O)NC2CCN(C(=O)c3cn(-c4ccccc4)nn3)CC2)c1 | i
Cc1ccc(-c2noc(C3CCN(CC(=O)Nc4ccccc4C(F)(F)F)CC3)n2)cc1 | i
CC1CCN(S(=O)(=O)c2cccn(CC(=O)NCC3CCCO3)c2=O)CC1 (stereo not given) | i

(next part)
SMILES | GIRK2 act
COc1ccc(-c2nc(CNC(=O)c3ccc(-n4cccn4)nn3)cs2)cc1 | i
O=C(c1cccc(C(F)(F)F)c1)N1CCC(Cn2ccnc2)CC1 | i
O=C(Nc1nc(C(=O)NCc2ccc(OCc3ccccc3)cc2)co1)c1ccsc1 | i
COc1ccc(NC(=O)c2nnn(-c3ccc4noc(-c5ccc(Cl)cc5)c4c3)c2C)c(OC)c1 | i
O=C(CN1CC(c2nc(Cc3ccccc3)no2)C1)Nc1ccc(OC(F)(F)F)cc1 | i
O=C(c1cccc(F)c1)N(CCCn1ccnc1)c1nc2ccc(F)cc2s1 | i
Cc1ccc(-c2nc(CSc3nc4ccccc4c(=O)n3Cc3ccco3)c(C)o2)cc1 | i
COc1ccc(-c2ccc(S(=O)(=O)N3CCCCCC3)cc2)cc1 | i
O=S(=O)(NCCc1csc(-n2cccn2)n1)c1cc(F)ccc1F | i
Cc1c(Cl)cccc1NC(=O)Nc1cnc(N2CCCC2)nc1 | i
O=P(O)(O)OC1C(OP(=O)(O)O)[C@@H](O)[C@@H](O)C(OP(=O)(O)O)[C@@H]1O (stereo not given in full) | i
Cc1c(CNC(=O)NCc2cccs2)sc2nc(-c3ccc(F)cc3)cn12 | i
O=C(c1ccc(OC(F)(F)F)cc1)N(Cc1ccccn1)Cc1ccco1 | i
CCN1CCc2c(sc(NC(=O)c3ccn(C)n3)c2-c2nc3ccccc3s2)C1 | i
COc1ccc(C(=O)NCCS(=O)(=O)N2CCN(c3ccccc3)CC2)cc1OC | i

Remaining list, next part.
SMILES | GIRK2 act
CC1Oc2ccccc2OC1C(=O)NCC1CCC(c2nc3ccccc3[nH]2)CC1 (stereo not given) | i
COc1ccc(-c2nn3c(N4CCN(Cc5ccccc5)CC4)cc(C)nc3c2C)cc1OC | i
COc1ccc(-c2ccc(=O)n(CCNS(=O)(=O)c3ccc(Cl)cc3)n2)cc1 | i
CN(C)CC#Cc1cccc(C(=O)c2cnn(-c3ccc(F)cc3)c2N)c1 | i
Cc1ccc2c(c1)N(C(=O)Cn1cc(S(=O)(=O)N3CCCC3)ccc1=O)CCO2 | i
Cn1cc(C2=C(c3ccc4ccccc4c3)C(=O)NC2=O)c2ccccc21 | i
O=C(c1ccco1)N1CCN(c2ncnc3c2nnn3-c2ccccc2)CC1 | i
COc1ccc(C2CC3C4NN=C(SCC(=O)Nc5cc(C)ccc5OC)N4C=CN3N2)cc1 (stereo not given) | i
O=C(c1cccc(Cl)c1)N1CCCC(c2nnc(-c3ccccc3F)s2)C1 (stereo not given) | i
COC(=O)Cn1c(=O)c2c(nc3n2CC(C)CN3c2ccccc2C)n(C)c1=O (stereo not given) | i
COc1nn(C)cc1C(=O)NCCn1ccc(C(F)(F)F)n1 | i
CCSc1nnc(NC(=O)C2CCCN(Cc3nc(-c4ncccn4)no3)C2)s1 (stereo not given) | i
COc1ccc(NC(=O)Cn2cnc3c(-c4ccc(Cl)cc4)csc3c2=O)cc1 | i
CCOc1ccc(-c2nc(SCC(=O)NCCCOC)c(-c3ccccc3)[nH]2)cc1OC | i
O=C(CCCSc1ccc(NC(=O)c2ccco2)nn1)NCc1ccc2c(c1)OCO2 | i

The list goes on; it opens with the six that closed the last part.
SMILES | GIRK2 act
COC(=O)Cn1c(=O)c2c(nc3n2CC(C)CN3c2ccccc2C)n(C)c1=O (stereo not given) | i
COc1nn(C)cc1C(=O)NCCn1ccc(C(F)(F)F)n1 | i
CCSc1nnc(NC(=O)C2CCCN(Cc3nc(-c4ncccn4)no3)C2)s1 (stereo not given) | i
COc1ccc(NC(=O)Cn2cnc3c(-c4ccc(Cl)cc4)csc3c2=O)cc1 | i
CCOc1ccc(-c2nc(SCC(=O)NCCCOC)c(-c3ccccc3)[nH]2)cc1OC | i
O=C(CCCSc1ccc(NC(=O)c2ccco2)nn1)NCc1ccc2c(c1)OCO2 | i
O=c1ccc(-c2ccccc2Cl)nn1Cc1nc(-c2ccc3c(c2)OCO3)no1 | i
CC/C=C\C/C=C\C/C=C\C/C=C\CCCCC(=O)CC | i
CN(C)CCN(C(=O)/C=C/c1ccccc1)c1nc2ccc(S(C)(=O)=O)cc2s1 | i
Cc1cn2c3c(=O)n(Cc4c(F)cccc4Cl)c(=O)n(C)c3nc2n1CCOCCO | i
Cc1ccc(C)c(S(=O)(=O)Nc2ccc(C(=O)Nc3ccccc3F)cc2)c1 | i
COc1cc(OC)cc(N2C=C(C#N)S(=O)(=O)c3c(F)cccc32)c1 | i
Cc1ccc(S(N)(=O)=O)c(C)c1N(C)S(C)(=O)=O | i
O=C(c1cn(-c2cc(N3CCSCC3)ncn2)cn1)N1CCC(Cc2ccccc2)CC1 | i
O=C(Nc1ccc(-c2ccn[nH]2)cc1)c1csc(-c2ccccc2)n1 | i
Cc1cc(NC(=O)c2ccc[nH]c2=O)sn1 | i
O=C(c1ccc(N2CCCS2(=O)=O)cc1)N1CCN(C(c2ccccc2)c2ccccc2)CC1 | i
Cc1ccccc1NC(=O)C1CN(C(=O)COc2ccccc2F)C1 | i
Cc1cc(C(=O)Nc2cc(N3CCCS3(=O)=O)ccc2C)no1 | i
O=C(NCc1ccco1)c1cc(-c2ccc(F)cc2)c[nH]1 | i
CCn1c(=O)c2ccccc2n(Cc2nc(-c3ccc(SC)cc3)no2)c1=O | i

More records:
SMILES | GIRK2 act
O=S(=O)(c1ccc(OC(F)(F)F)cc1)N1CC(c2nc(-c3ccccc3)no2)C1 | i
CCOC(=O)c1cccc(NC(=O)c2c(S(=O)(=O)Nc3ccc(F)cc3)n[nH]c2C)c1 | i
CCN(CC)CCn1c(C)cn2c3c(=O)n(Cc4ccccc4F)c(=O)n(C)c3nc12 | i
O=C(O)CCC/C=C\C[C@@H]1C(/C=C/C(F)(F)COc2ccccc2)[C@H](O)C[C@@H]1O (stereo not given in full) | i
CCc1ccccc1NC(=O)Cn1c(=O)n(Cc2ccccc2)c(=O)c2c1c1cc(C)ccc1n2C | i
O=S(=O)(c1ccc(Cl)cc1)c1nnn2c1nc(NCc1cccs1)c1sccc12 | i
O=C(CCS(=O)(=O)c1ccccc1)N1CCC(Oc2ccc(C(F)(F)F)cn2)CC1 | i
O=C(CSCc1ccccc1)N1CCN(c2ccc(-c3noc(C4CC4)n3)cn2)CC1 | i
N#Cc1cnc(NC(=O)C2CC=CCC2)s1 (stereo not given) | i
CCOc1ccc(-c2ccc(OCCNC(=O)c3cc(C)cc(C)c3)nn2)cc1 | i
O=C(CCSc1nnc2scc(-c3ccc(Cl)cc3)n12)NCCc1ccccc1 | i
Cc1cccc(NC(=O)C2=Cc3ccccc3OC=C2)c1C | i
Cc1nn(C)cc1S(=O)(=O)N1CCc2ccccc2C1 | i
COc1ccc(CCNC(=O)c2ccc(-n3cccn3)nc2)cc1OC | i
O=C(Nc1sccc1-c1nc2ccccc2s1)c1cc2ccccc2o1 | i

Remaining list, next part.
SMILES | GIRK2 act
Cc1cc(NC(=O)c2ccc(S(=O)(=O)C(C)C)cc2)n(-c2nc3ccccc3s2)n1 | i
Cc1cn2c3c(=O)n(CC(N)=O)c(=O)n(C)c3nc2n1CCN1CCOCC1 | i
O=C(/C=C/c1ccccc1)N1CCN(CC(O)C2CC2)CC1 (stereo not given) | i
CC(C)(C)c1ccc(NC(=O)N2CCN(Cc3nnnn3-c3ccc(F)cc3)CC2)cc1 | i
Cc1ccc(CNC(=O)Cn2nc3ccc(SC4CCCCC4)nn3c2=O)cc1 | i
CC(=O)Nc1ccc(NC(=O)c2ccc(=O)n(C)n2)cc1 | i
Cc1cc(C)n(C(C)CNC(=O)c2cccs2)n1 (stereo not given) | i
Cc1noc(C)c1S(=O)(=O)N1CCC(Oc2cnccn2)CC1 | i
Cc1nn(-c2nc3c(c(=O)n(CC(N)=O)c(=O)n3C)n2C(C)C)c(C)c1C | i
Cc1ccc2c(Nc3ccc4c(c3)OCO4)c(C(=O)N3CCCC3)cnc2n1 | i
CCNS(=O)(=O)c1cccnc1Nc1ccc(F)c(Cl)c1 | i
O=C1c2ccccc2C(=O)N1CCCN1C(=O)COc2ccccc21 | i
O=C(Nc1cccc(-c2nc3ccccc3o2)c1)Nc1ccccc1C(F)(F)F | i
CCc1c2c([nH]c(=S)c1C#N)CC(C)(C)CC2=O | i
CCOc1ccc(NC(=O)CCn2cnc3c([nH]c4cc(OC)c(OC)cc43)c2=O)cc1 | i

Other compounds:
SMILES | GIRK2 act
Cc1onc(-c2ccccc2Cl)c1C(=O)NCCC(O)c1ccc2c(c1)OCO2 (stereo not given) | i
COc1ccccc1-n1nnc(C(=O)NCc2ccc(SC)cc2)c1-c1ccccn1 | i
Cc1ccc(C(=O)NC2(c3nc(C4CC4)no3)CCCCC2)cc1C | i
O=C(NC1CC(O)C(CO)C1)c1cc2ccccc2o1 (stereo not given) | i
COc1ccc(Oc2c(C)oc3cc(OC(=O)N4CCOCC4)ccc3c2=O)cc1 | i
O=C(OC1CN(c2nc3ccc(F)cc3s2)C1)c1cccnc1 | i
CC1CCc2nc(NC(=O)C3CCN(S(=O)(=O)c4ccc(F)cc4)CC3)sc2C1 (stereo not given) | i
O=C(CCc1csc(NC(=O)c2ccco2)n1)NCc1ccc(F)cc1 | i
CCc1ccccc1-n1c(C)cn2c3c(=O)n(CC(=O)OC)c(=O)n(C)c3nc12 | i
CN1CCOc2ccc(NC(=O)c3cc(-c4ccccc4)nn3C)cc2C1=O | i
CC(C)n1ccc(C(=O)Nc2ccc3c(c2)Cc2ccccc2-3)n1 | i
O=C(c1ccc(=O)[nH]c1)N1CCCC(c2nnc(-c3ccccc3F)s2)C1 (stereo not given) | i
COc1cccc2sc(OC3CN(C(=O)Cc4cccs4)C3)nc12 | i
Cc1cc(=O)[nH]c(-n2nc(C3CC3)cc2NC(=O)c2ccc3c(c2)OCO3)n1 | i
CN1CCN(c2ncc(NC(=O)c3ccccc3)cn2)CC1 | i

Continuation:
SMILES | GIRK2 act
Cc1cc2nn(CC(=O)Nc3ccc(F)cc3Cl)c(=O)n2c(Nc2ccc(F)cc2)n1 | i
COc1ccc(CC(C)(O)CNC(=O)c2ccccc2SC)cc1 (stereo not given) | i
O=c1c2ccccc2n(Cc2nc(-c3ccccc3Cl)no2)c(=O)n1CCc1ccccc1 | i
Cc1nc2sc(C)c(C)n2c(=O)c1NC(=O)C1c2ccccc2Oc2ccccc21 | i
CCOc1ccc(NC(=O)Cn2cnc3c(-c4ccc(F)cc4)csc3c2=O)cc1 | i
O=C(Cc1noc2ccccc12)Nc1ccc(-c2ccn[nH]2)cc1 | i
O=C(CCCSc1ccc(NC(=O)c2ccc(F)cc2)nn1)NC1CC1 | i
COc1ccc2cc(Br)ccc2c1CC(=O)NCc1cccnc1 | i
Cc1cc(C(=O)N2CCC(CSc3ccccn3)CC2)c(C)o1 | i
CCSc1ccccc1C(=O)N1CC(c2nc(-c3ccc[nH]c3=O)no2)C1 | i
CCOc1ccc2ccccc2c1C(=O)N[C@@H]1C(=O)N2[C@@H]1SC(C)(C)[C@@H]2C(=O)O | i
O=C(c1ccc(Cl)s1)N1CCC(CSc2ccccn2)CC1 | i
Cc1ccc(NC(=O)Cn2nc3cc(-c4ccccn4)nc(C)n3c2=O)c(Cl)c1 | i
Cc1nc(-c2nnn(-c3ccc(F)cc3)c2C)sc1C(=O)NCC(C)C | i
C=CCc1ccccc1OCC(O)CNC1CCCC1 (stereo not given) | i

Carrying on:
SMILES | GIRK2 act
Cc1noc(C2CN(CC(=O)Nc3cc(C)on3)C2)n1 | i
CCCCOc1ccc(NC(=O)NCc2cc(-c3ccccn3)n(C)n2)cc1 | i
CN1CC(c2nc3ccccc3n2Cc2ccc(Cl)c(Cl)c2)CC1=O (stereo not given) | i
CN(c1ccc(F)cc1)S(=O)(=O)c1c(-c2ccccc2)csc1C(N)=O | i
COc1ccccc1-c1nc(Cn2nnc(C(=O)Nc3ccccc3F)c2N)c(C)o1 | i
O=S(=O)(c1ccc(F)cc1F)N1CC(c2nc(Cc3cccs3)no2)C1 | i
COc1ncccc1C(=O)N1CCC(C(=O)Nc2nccs2)CC1 | i
Cc1nc(SCC(=O)Nc2ccc(C)c(Cl)c2)cc(-c2ccncc2)n1 | i
COc1ccc(NC(=O)c2cnn3c(-c4ccncc4)ccnc23)c(OC)c1 | i

Screens: PubChem BioAssay, Vanderbilt University
